High-throughput results deposited in PubChem by National Center for Advancing Translational Sciences (NCATS).
AID923 = qHTS Assay for Allosteric/Competitive Inhibitors of Caspase-1: Spectroscopic Profiling in AFC Spectral Region. Potency, µM (series often up to 57.5 µM), for inactives: top-dose fluorescence increase, hits mostly activators. compound fluorescence, AFC spectral region (405/520 nm); almost no hit is shown here. 1.1% of 75,000 active; active means well fitted activation curve with a large enough effect;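 further: 0% is about no effect; scaled to a free AFC standard on each plate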
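Titrations up to 57 uM read every 20 sec for 3 min (405/520 nm) with 50 nM caspase 1 and 5 uM Ac-WEHD-AFC, pH 7.5 HEPES buffer. Fluorescence-vs-time intercept gave baseline, scaled against on-plate AFC standard.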
Starred values were filed as active, the others as inactive; & = joins results of further samples; [ ] = remark or other dose. Potency means the concentration at half of the fitted maximal effect. A portion of the library, so the mix of outcomes need not match the whole.

SMILES | AID923
O=C1CC(c2ccccc2O)Oc2ccc(O)cc21 (centres undefined) | -4.6%
CCc1ccc2c(O)c3c(cc2c1C(=O)OC)C(=O)c1c(O)ccc(O)c1C3=O | 1.4%
CCOc1ccc(N(CC(=O)NCc2ccco2)S(C)(=O)=O)cc1 | -1.2%
C[C@H](C(=O)O)c1cccc(C(=O)c2ccccc2)c1 | -1.3%
Nc1ccn([C@H]2C[C@H](O)[C@@H](CO)O2)c(=O)n1 | 2.1%
COc1cccc(C2NC(=O)NC(C)=C2C(=O)OCCSC)c1OC (centres undefined) | 0.5%
CC(C)=CC1C(CO)C1(C)C (centres undefined) | -0.1%
O=C(OC1Cc2c(O)cc(O)cc2OC1c1cc(O)c(O)c(O)c1-c1c(C2Oc3cc(O)cc(O)c3CC2O)cc(O)c(O)c1O)c1cc(O)c(O)c(O)c1 (centres undefined) | -5.4%
CCOc1cc(CNc2ccccc2SC)ccc1O | 1.6%
CC(=O)OC1CCC23CC1(C)CCC2C(C)(C)CC3OC(C)=O (centres undefined) | -1.0%
N#Cc1c(N)nc2c(c1-c1cccnc1)CCCCC2 | -2.3%
Cn1c(N)c(C(=O)COC(=O)c2cc(C(F)(F)F)nc3ccccc23)c(=O)n(C)c1=O | -2.0%
COc1ccc(OC)c2sc(NC(=O)C3CC3)nc12 | 3.7%
CCOc1ccc(S(=O)(=O)N(CC(=O)O)c2ccccc2)cc1 | -0.1%
C=C[C@@](C)(O)CC[C@@H]1[C@@]2(C)CCCC(C)(C)[C@@H]2CC[C@@]1(C)O | -3.9%
COc1ccc2c(=O)c(-c3ccccc3)coc2c1 | -1.3%
COC1=CC(=O)C(C(=O)c2ccccc2)=CC1=O | -3.1%
CCOc1ccccc1NC(=O)C1CCN(S(=O)(=O)c2ccc(OC)c(OC)c2)CC1 | 2.8%
NC(=O)CC[C@H](N)C(=O)O | -0.8%
CC(C)(C)c1ccc(OCC(=O)N2CCN(C=O)CC2)cc1 | 3.4%
CC(Oc1ccccc1)C(=O)NC1C(=O)N2C(C(=O)O)C(C)(C)S[C@@H]12 (some centres undefined) | -2.0%
COc1cc(C2NC(=O)NC(C)=C2C(=O)OCc2ccc(C)cc2)cc(OC)c1O (centres undefined) | 0.0%
C[C@@H]1O[C@@H](O[C@H]2[C@H](Oc3cc(O)c4c(c3)O[C@H](c3ccc(O)cc3)CC4=O)O[C@H](CO)[C@@H](O)[C@@H]2O)[C@H](O)[C@H](O)[C@H]1O | -1.4%
CCC1=C2CC[C@H]3C(=O)N(c4ccccc4)C(=O)[C@H]3[C@H]2[C@@]2(Cc3ccccc3)C(=NCCc3c[nH]c4ccccc34)OC(=O)N2C1=O | 1.6%
CCCCCCNC(=O)n1cc(F)c(=O)[nH]c1=O | 0.9%
CN(C)/C=N/c1cc(=O)[nH]c(=O)n1CC1CC1 | 0.0%
CC1Cc2nc(SCC(N)=O)n(Cc3ccccc3)c(=O)c2S1 (centres undefined) | -2.3%
CC(C)CC(NC(=O)CN)C(=O)NC(Cc1ccccc1)C(=O)O (centres undefined) | -0.7%
CCCn1c(CN2CCCCC2C)nc2c1c(=O)n(C)c(=O)n2C (centres undefined) | -3.0%
COc1cc(-c2coc3cc(OC)c(OC)c(OC)c3c2=O)cc(OC)c1OC | -1.3%

Six compounds picked at random from the list so far:
SMILES | AID923
C=C[C@@](C)(O)CC[C@@H]1[C@@]2(C)CCCC(C)(C)[C@@H]2CC[C@@]1(C)O | -3.9%
COc1cc(-c2coc3cc(OC)c(OC)c(OC)c3c2=O)cc(OC)c1OC | -1.3%
Nc1ccn([C@H]2C[C@H](O)[C@@H](CO)O2)c(=O)n1 | 2.1%
C[C@H](C(=O)O)c1cccc(C(=O)c2ccccc2)c1 | -1.3%
CCc1ccc2c(O)c3c(cc2c1C(=O)OC)C(=O)c1c(O)ccc(O)c1C3=O | 1.4%
COc1cc(C2NC(=O)NC(C)=C2C(=O)OCc2ccc(C)cc2)cc(OC)c1O (centres undefined) | 0.0%

(listing goes on)
SMILES | AID923
CC(C(=O)O)c1ccc(N2Cc3ccccc3C2=O)cc1 (centres undefined) | -0.9%
Cc1c(N=C/C=C/c2ccccc2)c(=O)n(-c2ccccc2)n1C | 1.1%
CC(CN(C)C)CN1c2ccccc2CCc2ccccc21 (centres undefined) | -1.9%
Cn1c(=O)c2c(nc(NCCc3ccccc3)n2Cc2ccc(F)cc2)n(C)c1=O | -3.2%
O=c1[nH]c(=O)n([C@@H]2O[C@H](CO)[C@@H](O)[C@H]2O)cc1Br | -0.4%
CCC(C)(C)C(=O)OC1CC(C)C=C2C=CC(C)C(CCC3CC(O)CC(=O)O3)C21 (centres undefined) | 0.3%
COc1ccc(OC(C)=O)c(C2c3cc(OC)c(OC)cc3CCN2C(C)=O)c1 (centres undefined) | -0.7%
Cc1nn(CCCC(=O)N2CCc3ccccc3C2)c(=O)c2cc3sccc3n12 | -0.2%
CCC1=C2CC[C@H]3C(=O)N(CC(=O)OC)C(=O)[C@H]3[C@H]2[C@@]2(C)C(=NCC(=O)OC)OC(=O)N2C1=O | 0.9%
C/C(=C\CO)CCC(C)CCCC(C)CCCC(C)C (centres undefined) | -1.7%
Clc1ccc(-c2nc(NCCN3CCOCC3)c3ccccc3n2)cc1 | -0.9%
CN1C(CC(=O)c2ccccc2)CCCC1CC(O)c1ccccc1 (centres undefined) | -1.0%
COC(=O)/C=C/C(C)=C/C=C/C(C)=C/C=C/C=C(C)/C=C/C=C(C)/C=C/C(=O)O | -1.0%
CSc1nc(-c2ccccc2)nc(N2CCN(C)CC2)c1C(C)=O | 0.8%
NC(N)=NCCCC(NC(=O)C(N)Cc1ccc(O)cc1)C(=O)O (centres undefined) | -2.7%
O=C(NCO)c1cccnc1 | 0.1%
CCCCOc1ccc(CN2CCCCC2)cc1 | -0.5%
COc1cccc(-c2nnc(SCC(=O)N3CC(C)CC(C)C3)o2)c1 (centres undefined) | -2.2%
COC(=O)c1ccc(C23CC4(C2)[C@H](CN(Cc2cccnc2)[C@@H]4c2ccccc2)C3c2ccccc2)cc1 (some centres undefined) | 6.4%
CC[C@H](CC[C@@H](C)C1CC[C@H]2[C@@H]3CC=C4C[C@@H](O)CC[C@]4(C)[C@H]3CC[C@]12C)C(C)C (some centres undefined) | 5.5%
Cc1ccc(-c2noc(CN(C(=O)c3cccc(Br)c3)C(C)C)n2)cc1 | -2.7%
FC(F)(F)c1ccc(CN2C[C@@H]3C(c4ccccc4)C4(c5ccccc5)CC3(C4)[C@H]2c2ccccc2)cc1 (some centres undefined) | -3.8%
CC(=O)OC1CC2C(C)(C)C(O)CC(O)[C@@]2(C)C2CC[C@@]3(C)C(=CC(=O)OC3c3ccoc3)[C@]12C (some centres undefined) | -0.1%
Cc1cc(O)c(C=O)c2c1C(=O)Oc1c(C)c(O)c3c(c1O2)C(O)OC3=O (centres undefined) | -1.1%
CC(C)CC1C(C#N)=C(N)SC(N)=C1C#N | 1.0%
CCCCCCOc1ccccc1C(N)=O | -0.3%
CCn1c(C(=O)NCc2cccnc2)cc2sc(Cl)cc21 | 0.3%
CCn1c2ccccc2c2nnc(SCc3ccccc3)nc21 | 2.6%
N#Cc1ccc(C23CC4(C2)[C@H](CN(Cc2ccc(-c5ccccc5)cc2)[C@@H]4c2ccccc2)C3c2ccc(Cl)nc2)cc1 (some centres undefined) | 0.4%
CCN(CC)CCOc1ccc2c(c1)C(=O)c1cc(OCCN(CC)CC)ccc1-2 | 0.9%

(more compounds)
SMILES | AID923
CCC(CCC(C)C1CCC2C3CCC4CC(O)CC[C@@]4(C)C3CC[C@@]12C)C(C)C (some centres undefined) | 2.4%
CC(C)=CCC/C(C)=C/CO/N=C1/C[C@@H](O)[C@@H](O)[C@@H]2[C@@H]3C(=O)N(Cc4ccccc4)C(=O)[C@H]3CC[C@H]12 | 0.0%[11.5 µM]
c1ccc(C2[C@H]3CN(Cc4cccnc4)[C@H](c4ccccc4)C34CC2(c2ccccc2)C4)cc1 (some centres undefined) | -3.7%
COC(=O)c1ccc(C23CC4(C2)[C@H](CN(CC2CCCCC2)[C@@H]4c2ccccc2)C3c2ccc(C(F)(F)F)cc2)cc1 (some centres undefined) | -0.2%
CCC(C(=O)C(C)C(O)C(C)CCc1ccc(C)c(O)c1C(=O)O)C1OC(CC)(C2CC[C@@](O)(CC)C(C)O2)CC1C (some centres undefined) | -0.2%
Oc1c(C(c2ccco2)N2CCC3(CC2)OCCO3)sc2ncnn12 (centres undefined) | -1.7%
COc1cc2c(c(OC)c1)C(c1cccc(OC)c1OC)CC(=O)N2 (centres undefined) | -2.0%
CC(=O)Oc1c(-c2ccccc2)oc2c(CC=C(C)C)c3c(c(OC(C)=O)c2c1=O)C=CC(C)(C)O3 | 0.0%
CSc1nc2ccc(S(=O)(=O)NC3CCCCC3)cc2s1 | -0.6%
CC[C@H]1C2=C3C(CC[C@H]4C(OCc5ccc(F)cc5C(F)(F)F)OC[C@](C)([C@@H]34)N(C(=O)OC(C)(C)C)C2)C(COC)C1COC (some centres undefined) | -1.0%
CC(C(=O)O)C1CCC2C3CC=C4CC(O)CC[C@@]4(C)C3CC[C@]12C (some centres undefined) | 3.5%
OC[C@H]1O[C@@H](n2cnc3c(NCc4ccccc4)ncnc32)[C@H](O)[C@@H]1O | 0.3%
Nc1nc2c(ncn2C2OC(CO)CC2O)c(=O)[nH]1 (centres undefined) | -1.1%
CC(CCC(=O)O)C1CCC2C3CC[C@@H]4CCCC[C@@]4(C)C3CC[C@@]12C (some centres undefined) | -0.5%
Oc1ccc(Cl)c2cccnc12 | -1.3%
C=CCOC(=O)C(C(C)=O)C(NC(=O)OC)c1ccc(Cl)cc1 (centres undefined) | -2.3%[11.5 µM]
COc1cc(OC)c2c(=O)c(OC)c(-c3ccc(OC)c(OC)c3)oc2c1 | -0.8%
CCCCN(C)C(=O)CS(=O)(=O)Cc1nc(-c2cccc(OC)c2)oc1C | -0.4%
CCC1OC(=O)C(C)[C@@H](O[C@H]2C[C@@](C)(OC)C(O)C(C)O2)C(C)[C@@H](O[C@@H]2OC(C)CC(N(C)C)C2O)[C@@](C)(O)CC(C)C2NC(COCCOC)O[C@H](C2C)[C@@]1(C)O (some centres undefined) | 1.2%
CCOC(=O)Cn1c(C)cc(=O)c2cccc(C)c21 | -0.9%
COc1ccc(-c2cc(=O)c3c(OC)c(OC)c(OC)c(OC)c3o2)cc1OC | -2.2%
COc1cc(C2c3cc4c(cc3C(O)[C@H]3COC(=O)C23)OCO4)cc(OC)c1OC (some centres undefined) | -1.0%&-3.1%
N#Cc1ccc(C23CC4(C2)[C@H](CN(Cc2cccnc2)[C@@H]4c2ccccc2)C3c2ccccc2)cc1 (some centres undefined) | 1.4%
CC1CCC2(OC1)OC1CC3C4CC[C@@H]5CC(O)CC[C@@]5(C)C4CC(=O)[C@]3(C)C1C2C (some centres undefined) | 0.4%
COc1cc2c(cc1OC)Cc1cc(OC)c(OC)cc1Cc1cc(OC)c(OC)cc1C2 | -3.6%
CCOc1ccc(C(=O)c2ccc(O)c(O)c2O)cc1 | -3.1%
COc1ccccc1-c1oc2ccccc2c(=O)c1O | -1.8%
COc1c(O)cc2c(-c3ccccc3)cc(=O)oc2c1OC | 0.8%
C=CCOC(=O)C(C(C)=O)C(NC(=O)OC)c1ccc2ccccc2c1 (centres undefined) | -1.9%[11.5 µM]
Cc1cc(C)nc(NS(=O)(=O)c2ccc(NC(=O)c3cccs3)cc2)n1 | 2.7%

Further entries
SMILES | AID923
Cc1ccc2[nH]c3nc(CCCn4ccnc4-c4ccccc4)nnc3c2c1 | -0.1%[11.5 µM]
COc1ccc2c(c1OC)C(=O)O[C@H]2C1c2c(cc3c(c2OC)OCO3)CCN1C (some centres undefined) | -0.4%&-1.2%
O=c1cc(-c2ccc(O)c(O)c2)oc2ccccc12 | -1.8%
COC(=O)C(O)C1C(C)(C)C(OC(C)=O)C2CC3=C4CC(=O)OC(c5ccoc5)[C@]4(C)CCC3[C@@]1(C)C2=O (some centres undefined) | -0.4%
CC(=O)OCC(=O)[C@]1(O)C(OC(C)=O)CC2C3CCC4=CC(=O)C=C[C@@]4(C)[C@]3(F)C(O)C[C@]21C (some centres undefined) | -0.8%
CC(CC(O)C1OC1(C)C)C1CCC2(C)C3=CCC4C(C)(C)C(=O)CCC4(C)C3CC[C@@]12C (some centres undefined) | -1.0%
Cc1cc(=O)cc2oc3cc(N)c(-c4c(C)cc(O)cc4O)c(C)c3nc1-2 | 0.2%
C=CCCCCCCCCCCC/C=C/C(O)COC(C)=O (centres undefined) | -0.6%
CC(=O)c1c(O)c(C)c(O)c2c1OC1=CC(=O)C(C(C)=O)C(=O)C12C (centres undefined) | -5.7%
O=C(NCc1cccnc1)c1cnc2sccn2c1=O | 4.4%
CC(=O)OCC(=O)C1CCC2C3CC=C4CC(O)CC[C@@]4(C)C3CC[C@]12C (some centres undefined) | 1.1%
Cc1c(Nc2ncnc3nc[nH]c23)c(=O)n(-c2ccccc2)n1C | -3.1%
CCc1ccc(C2CC(c3ccc(C)cc3)n3nc(N)nc3N2)cc1 (centres undefined) | -2.0%
CN1C[C@@H]2C(c3ccc(Cl)nc3)C3(c4ccc(C#N)cc4)CC2(C3)[C@H]1c1ccccc1 (some centres undefined) | 0.5%
